# Assay outcomes from PubChem.
# PINK1 expr mod – A Quantitative High throughput Screen to Identify Chemical Modulators of PINK1 Expression; PINK1 immunofluorescence, high-content cytometry, 24 h; AID 624263, 2012; hit rate 0.2% among 410,000; Potency, µM (doses to about 76.6 µM), for inactives: at the highest dose activation (PINK1 increase), most hits filed as activators; active = well fitted activation curve with a large enough effect; inconclusive = small, poorly fitted or top-dose-only effect; inactive = flat fitted curve, though single readings scatter; cell line not stated here;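 also: % of control where 0% means no effect; nearly all actives have a fitted effect of over 65% in size; a mitochondrial uncoupler was the plate control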
#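 Stable cell line treated 24 h with compounds at 5 concentrations (CCCP controls), then fixed and immunostained for PINK1 plus nuclear and cell stains; PINK1 immunofluorescence quantified by laser-scanning microplate cytometry.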
# * = called active by the depositor; ? = inconclusive. Potency is read from the fitted curve at half-maximal effect.
Structure,PINK1 expr mod
CCc1nc2cc(C(=O)N[C@H]3CCCCNC3=O)cc(NC(=O)c3ccccc3OC)c2n1C,-0.4%
COc1cc(=O)n2c(c1C(=O)N(C)Cc1nonc1C)CCN(Cc1ccccc1F)CC2,-0.1%
Cc1ccc(C(=O)Nc2cccc(-c3nc(CNC(=O)C4(C)CC4)c(C)o3)c2)s1,0.4%
O=S(=O)(NCC1CN(S(=O)(=O)c2c(F)cccc2F)C1)c1ccc2c(c1)OCCO2,0.6%
C[C@@H]1CN(Cc2ccc3c(c2)CN(Cc2cccc4c2OCO4)CCO3)C[C@H](C)O1,-0.3%
COc1ccccc1Nc1nc(N2CCCC2)nc(N2CCOCC2)n1,-1.3%
O=c1c2ccccc2ccc2ccc(P(=O)(O)O)cc12,1.0%
c1ccc2sc(-c3cc4c(c(OC5CCOC5)c3)OCCN(Cc3cccn3-c3nccs3)C4)nc2c1 (stereo not given),-0.6%
CC(=O)NC(c1cccs1)c1cc(Cl)c2ccccc2c1O (stereo not given),?
COc1ccc(CN2CCCC(c3nc(-c4ccncc4)ncc3-c3ccccc3)C2)c(OC)c1OC (stereo not given),0.0%
c1cncc(OC2CCN(Cc3ccc4c(c3)CN(Cc3ccc5c(c3)OCCO5)CCO4)CC2)c1,0.6%
Cc1cccc(CNC(=O)c2cnn(-c3nccc(-c4ccccc4C(F)(F)F)n3)c2C)n1,0.4%
O=C(O)c1ccc(-c2noc(-c3ccccc3C(F)(F)F)n2)cc1,2.2%
CCC(=O)NC(c1cc(Cl)c2ccccc2c1O)C(C)C (stereo not given),11%
COc1ccc(CN2CCOc3ccc(C(O)c4cccnc4)cc3C2)c(F)c1 (stereo not given),-1.0%
COc1ccccc1-c1ccnc(-n2ncc(C(=O)N3CCN(C(C)C)CC3)c2-c2ccco2)n1,1.0%
COc1cc(-c2cccnc2)cc2c1OCCN(C(=O)Cc1csc(C)n1)C2,0.6%
Cc1ccccc1C1(CC(=O)N2CCCCC2c2cccnc2)CC(=O)N(C2CCCC2)C1=O (stereo not given),-0.2%
COc1ccccc1-c1csc2ncnc(Sc3nnnn3C)c12,0.6%
Cc1ccc(S(=O)(=O)Nc2cc(Br)cc3cccnc23)cc1,-0.3%
Cc1ccccc1-c1cccc(CN2CCc3nnc(C(NS(C)(=O)=O)C(C)C)n3CC2)c1 (stereo not given),0.5%
Cc1c(C(=O)NCCc2cccnc2)cnn1-c1nccc(-c2ccccc2F)n1,-0.3%
O=C(NCCO)c1cn(C2CCCN(Cc3cccc(C(F)(F)F)c3)C2)nn1 (stereo not given),-0.7%
Cc1nc2cc(NC(=O)[C@@H]3C[C@@H](Sc4ccccn4)CN3Cc3cccc(F)c3)ccc2s1,0.1%
Oc1cc(-c2nc3ccccc3s2)cc2c1OCCN(Cc1cccn1-c1ccc(Cl)cn1)C2,0.6%
CC(C)(CNC(=O)c1cnn(-c2nccc(-c3cc4ccccc4o3)n2)c1C1CC1)N1CCOCC1,0.1%
Cc1ccc(CNc2nc(CN3CCN(C=O)CC3)nc3ccccc23)o1,-0.6%
COc1ccc(C)cc1N1C(=O)[C@@H]2C[C@H]1CN2Cc1cccc(OC)c1O,1.0%
Cc1nn(C)cc1CN1CCOc2ccc(CN3CCC(Oc4cccnc4)CC3)cc2C1,-0.7%
CS(=O)(=O)Nc1cc(C(=O)N2CCNC(=O)C2)c2c(c1)ncn2CCc1ccccc1,1.0%
CO[C@H]1[C@H](NC(=O)c2ccco2)c2ccccc2C12CCN(Cc1cnc(N(C)C)s1)CC2,1.4%
COc1cc(=O)n2c(c1C(=O)NCc1ccco1)CCN(C(=O)c1cccnc1SC)CC2,0.4%
O=S(=O)(c1ccc(F)cc1)N1CCN(S(=O)(=O)c2ccc3c(c2)OCCO3)CC1,5.8%
C#Cc1cccc(C(=O)NCc2nc(-c3ccccc3NC(=O)C3CCCO3)oc2C)c1 (stereo not given),0.6%
COc1ccc(C(=O)N2CCOc3ccc(CN4CCN(c5ccccn5)CC4)cc3C2)o1,-0.6%
COc1ccc(Cl)cc1-c1cc2c(c(OC)c1)OCCN(Cc1cccn1-c1nccs1)C2,-1.3%
CCC1CN(Cc2cccc3nccnc23)Cc2cc(OC)ccc2O1 (stereo not given),-0.1%
COc1ccc2c(c1)CCc1cnc(-n3ncc(C(=O)NCCCc4ccncc4)c3C)nc1-2,2.0%
Cc1nc(C)n(CC(=O)NCC2Cc3cc(-c4ccsc4)cc(Cl)c3O2)n1 (stereo not given),1.1%
CO[C@H]1[C@H](NC(=O)c2ccsc2)c2ccccc2C12CCN(Cc1cccc3ncccc13)CC2,0.6%
Cc1ncc2c(c1CNC(=O)/C=C/c1cccs1)CCN(C(=O)c1c(C)noc1C)C2,0.2%
CN(Cc1ccccc1)/[N+]([O-])=N/Oc1ccc([N+](=O)[O-])cc1[N+](=O)[O-],0.5%
CCS(=O)(=O)Nc1cc(C(=O)N2CCCN(C=O)CC2)c2c(c1)nc(-c1ccccc1)n2C,-0.3%
Cn1nnnc1Sc1ncnc2scc(-c3ccc(C#N)cc3)c12,-0.8%
c1cncc(-c2ccc3ncnc(NCc4ccc5c(c4)OCO5)c3c2)c1,0.5%
Cc1csc(C(C)N(C)C(=O)c2cc(NC(=O)C3CCC3)c3c(c2)nc(-c2ccncc2)n3C)n1 (stereo not given),0.1%
COc1cc(-c2cccc(Cl)c2)cc2c1OCCN(C(=O)CCn1ccc(C)n1)C2,0.3%
COCCN(C)C(=O)c1cnn(-c2ncc3c(n2)-c2ccccc2CCC3)c1C1CC1,-0.4%
Cc1cnc(-n2ncc(C(=O)N(C)CC3CCCN(C)C3)c2C2CC2)nc1-c1cccs1 (stereo not given),0.1%
COc1cccc(-c2ccc3ncnc(NCc4ccc5c(c4)OCO5)c3c2)c1,0.9%
Clc1cccc(-c2ccc(C3Nc4cccc5cccc(c45)N3)o2)c1,0.7%
COc1cccc(Nc2nc(NCCO)nc(N3CCCC3)n2)c1,0.0%
CC(C)CSc1nnc(CNC(=O)c2ccccn2)n1C,0.1%
COc1ccc(CN2CCC3(CCC(CNC(=O)c4ccco4)O3)CC2)c(OC)c1C (stereo not given),0.0%
O=C1CCN(Cc2cccn2-c2ccccn2)CCN1Cc1ccccc1C(F)(F)F,0.8%
Cc1ccc(CNc2ncnc3sc(C(=O)N4CCCC(C(N)=O)C4)c(C)c23)o1 (stereo not given),-0.3%
COCc1c(C(=O)N2CCCC(C)C2)cnn1-c1nccc(-c2cc(C)sc2C)n1 (stereo not given),2.1%
CC1CN(CC(=O)NCCc2ccncc2)Cc2ccccc2O1 (stereo not given),-0.4%
CC(C)c1cc(C(=O)N2CCOc3ccc(CN4CCC(Oc5cccnc5)CC4)cc3C2)n[nH]1,0.5%
Cc1cccc(CNC(=O)c2cnn(-c3nccc(-c4cc5ccccc5o4)n3)c2C2CC2)n1,4.9%

# Other results follow:
molecule	PINK1 expr mod
COc1cccc(C(=O)NCC2Cc3cccc(-c4cccnc4)c3O2)c1 (stereo not given)	0.0%
O=C(c1ccc(N2CCC(NCCCn3ncc4ccccc43)CC2)cc1)N1CCc2ccccc2C1	0.7%
O=C(Cc1ccccc1)Nc1ncnc2c1C(c1ccccc1)c1c(ccc3ccccc13)O2 (stereo not given)	0.3%
COc1cc2nc(CN(CCO)C3CS(=O)(=O)CC3O)nc(N3CCCCC3)c2cc1OC (stereo not given)	0.3%
COCC1CCCN(Cc2ccc3c(c2)CN(C(=O)c2ccc(-c4ccc(C)o4)cc2)CCO3)C1 (stereo not given)	0.9%
COC(=O)[C@@H]1CCCN1Cc1ccc2c(c1)CN(Cc1cccn1-c1ccc(Cl)cn1)CCO2	-0.6%
c1cncc(CNc2ncnc3ccc(-c4ccc5c(c4)OCCO5)cc23)c1	0.0%
COC(=O)c1ccc(C(=O)NCC2Cc3cccc(-c4ccc(C(=O)OC)cn4)c3O2)cc1 (stereo not given)	-0.8%
Cc1c(C(=O)N2CC3CCC2C3)sc2ncnc(NCc3ccco3)c12 (stereo not given)	0.0%
COC(=O)C1CCN(Cc2ccc3c(c2)CN(C(=O)c2cc(C4CC4)on2)CCO3)CC1	0.2%
CC(=O)Oc1ccccc1C(=O)Nc1ccccc1	-0.2%
O=C1c2ccccc2NC(c2ccc(-c3cccs3)o2)N1O (stereo not given)	1.3%
COc1cc(-c2c(OC)cccc2OC)cc2c1OCCN(Cc1cn[nH]c1-c1ccc(Cl)cc1)C2	-0.4%
CC1(C)OC(=O)C2(Cc3ccccc3N3CCCC32)C(=O)O1 (stereo not given)	1.5%
Cn1nc(C(=O)NCCN2Cc3ccccc3OC(c3ccsc3)C2)c2ccccc2c1=O (stereo not given)	1.7%
COC(=O)c1c(OCc2ccccn2)cc(=O)n2c1CCN(C(=O)c1cc(C(C)C)nn1C)CC2	1.1%
Cc1nc(SCc2nc3c(F)cccc3[nH]2)c2oc3ccccc3c2n1	1.0%
COc1ccccc1C1CN(CCNC(=O)c2ccccc2Cl)Cc2ccccc2O1 (stereo not given)	-0.5%
O=C(NCC1Cc2cccc(-c3ncccn3)c2O1)c1cccc(-c2ccccc2F)c1 (stereo not given)	-0.4%
COc1cc(CN2CCCC(n3cc(C(=O)N4CCCC4)nn3)C2)cc(OC)c1 (stereo not given)	0.9%

# Among those listed so far, 12 contain fluorine.
molecule	PINK1 expr mod
COc1cc(=O)n2c(c1C(=O)N(C)Cc1nonc1C)CCN(Cc1ccccc1F)CC2	-0.1%
O=S(=O)(NCC1CN(S(=O)(=O)c2c(F)cccc2F)C1)c1ccc2c(c1)OCCO2	0.6%
Cc1cccc(CNC(=O)c2cnn(-c3nccc(-c4ccccc4C(F)(F)F)n3)c2C)n1	0.4%
O=C(O)c1ccc(-c2noc(-c3ccccc3C(F)(F)F)n2)cc1	2.2%
COc1ccc(CN2CCOc3ccc(C(O)c4cccnc4)cc3C2)c(F)c1 (stereo not given)	-1.0%
Cc1c(C(=O)NCCc2cccnc2)cnn1-c1nccc(-c2ccccc2F)n1	-0.3%
O=C(NCCO)c1cn(C2CCCN(Cc3cccc(C(F)(F)F)c3)C2)nn1 (stereo not given)	-0.7%
Cc1nc2cc(NC(=O)[C@@H]3C[C@@H](Sc4ccccn4)CN3Cc3cccc(F)c3)ccc2s1	0.1%
O=S(=O)(c1ccc(F)cc1)N1CCN(S(=O)(=O)c2ccc3c(c2)OCCO3)CC1	5.8%
O=C1CCN(Cc2cccn2-c2ccccn2)CCN1Cc1ccccc1C(F)(F)F	0.8%
Cc1nc(SCc2nc3c(F)cccc3[nH]2)c2oc3ccccc3c2n1	1.0%
O=C(NCC1Cc2cccc(-c3ncccn3)c2O1)c1cccc(-c2ccccc2F)c1 (stereo not given)	-0.4%

# (more compounds)
molecule	PINK1 expr mod
O=C1NC(=O)C(Cc2ccccc2F)(C2CCN(Cc3cccn3-c3cccnc3)CC2)N1 (stereo not given)	-0.1%
CC(=O)c1ccc(N2CCN(S(=O)(=O)c3ccc4c(c3)CCC(=O)N4)CC2)cc1	0.8%
Cn1nnnc1Sc1ncnc2scc(-c3cccc4ccccc34)c12	3.4%
CC(=O)N[C@@H](C)C(=O)NCC1Cc2cccc(-c3ccccc3C(F)(F)F)c2O1 (stereo not given in full)	-0.3%
COc1ccc(N2C(=O)[C@@H]3C[C@H]2CN3Cc2cccn2-c2nccs2)cc1Cl	0.1%
c1ccc(CNc2ccc(N3CCOCC3)cc2)cc1	1.3%
COc1cccc(S(=O)(=O)NC2CCN(C#N)C2)c1 (stereo not given)	-0.6%
COc1ccc(CN2CCOc3ccc(C(O)c4cccnc4)cc3C2)cc1O (stereo not given)	0.7%
COc1ccc(CN2CCC3(CCC(CNC(=O)C4CCCO4)O3)CC2)c(C)c1C (stereo not given)	-0.5%
CC(=O)NC(C)c1cc(F)c2cccnc2c1O (stereo not given)	0.0%
COc1ccc(-n2c(CNC(=O)c3ccccc3C(F)(F)F)nnc2SC)cc1	-0.3%
Cc1cccnc1-c1cccc2c1OC(CNC(=O)/C=C/c1cccs1)C2 (stereo not given)	2.5%
O=C1CC(C(=O)N2CCCC(c3nc(-c4ccncc4)ncc3-c3ccccc3)C2)C2(CCCCC2)O1 (stereo not given)	0.6%
Cc1nc(NCc2cnn(C)c2C)sc1-c1ccn(CC2COc3ccccc3O2)n1 (stereo not given)	-0.4%
Oc1ccc(Cl)cc1C1C=C(c2ccc3c(c2)OCO3)NC(c2c(F)cccc2Cl)N1 (stereo not given)	3.9%
Oc1c(CN2CCCC2)cc(COCc2ccccc2)c2cccnc12	2.6%
c1cncc(-c2ccc3ncnc(NCc4cccs4)c3c2)c1	0.1%
O=C(NCCc1nnc2n1CCN(Cc1ccsc1)CC2)c1ccc(F)cc1	0.9%
O=C(NCC1(N2CCOCC2)CCCCCC1)c1cnn(-c2nccc(-c3ccco3)n2)c1C1CC1	0.6%
Oc1cc(NCc2ccc(F)cc2)cc2cccnc12	6.9%
O=C1CC(C(=O)N2CCOc3ccc(CN4CCC(Oc5cccnc5)CC4)cc3C2)c2ccccc21 (stereo not given)	-0.3%
Cc1ccc(C(=O)Nc2cccc(-c3nc(CNC(=O)[C@@H]4C[C@@H](C)NC(=S)N4)c(C)o3)c2)s1	0.5%
Cc1cc(-c2ccnc(-n3ncc(C(=O)NCC4COCCO4)c3C)n2)c(C)s1 (stereo not given)	7.4%
Cc1cnc(-n2ncc(C(=O)NCc3ccccn3)c2C2CC2)nc1-c1cccs1	2.2%
COc1ccc(CN2C[C@H](Sc3nc4ccccc4[nH]3)C[C@H]2C(=O)N2CCCN(C)CC2)cc1C	-0.1%

# Only part of the results is shown. The share of hits here may be higher or lower than overall.
